MgrA-DNA mod – S. aureus MgrA activity modulators, primary screen, biochemical, S. aureus Newman, fluorescence polarization; MgrA-DNA binding; AID 602314, 2012; 0.13% of 84,000 active; inhibition, %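 (about 10 µg/mL by stock and volumes)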;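 active = above 50% in either of two replicates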;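 note: 0% = protein plus DNA without compound and 100% = DNA alone without protein; higher means less MgrA bound to DNA so lower polarization; one replicate is shown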
Sa helicase inh – inhibitors of S. aureus replicative helicase, primary screen, biochemical, fluorescence unwinding readout; replicative DNA helicase (DnaC/DnaB), Staphylococcus aureus; purified S. aureus helicase, fluorescence unwinding assay; about half of the hits fall short of the stated cut; inhibition, %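 (tested at about 80 µM)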; 0.05% of 120,000 active; AID 485395, 2010;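 active = both duplicates at 50% or more, or one of them with a favoured structure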;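 note: 0% = mean of negative control wells and 100% = mean of positive control wells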
* = called active by the depositor; / = not tested or not shown; & = joins results of further samples. An excerpt. The share of hits here may be higher or lower than overall.

SMILES | MgrA-DNA mod | Sa helicase inh
CCCS(=O)(=O)c1ccc([N+](=O)[O-])cc1 | -2.0 | /
CCN1CCCC1CNC(=O)c1sc2nc3n(c(=O)c2c1C)CCCCC3 (stereo unspecified) | / | 14
N#CC(C(N)=S)=C1CCCC1 | 1.0 | 14
Cc1c(Cl)cccc1N1C(=O)CC(Sc2nnnn2-c2ccccc2)C1=O (stereo unspecified) | / | 2
CCOC(=O)C[N+](C)(C)Cc1ccccc1 | -8.0 | 2
CN(C)c1ccc(C2N(Cc3ccccc3)CCC3CCCCN32)cc1 (stereo unspecified) | -2.7 | /
CN(Cc1ccccc1)C(=O)COC(=O)c1cncc(Br)c1 | 1.6 | 8
CCC1COC(c2cccs2)=N1 (stereo unspecified) | / | 18
COc1cc(Cl)c(C)cc1NC(=O)CNC(=O)C1CCCCC1 | / | -10
Cc1ccc(C)c(S(=O)(=O)N(C)Cc2cccs2)c1 | / | 0
O=C1c2ccccc2C(=O)N1CCCN1CCN(Cc2c(F)cccc2Cl)CC1 | 0.2 | /
CCOC(=O)c1cc(C)nc2ccc(Br)cc12 | 0.5 | /
O=C(Nc1ccccc1)c1ccc(S(=O)(=O)N2CCCCC2)cc1 | / | -2
O=S(=O)(Nc1ccccc1NC1CCN(Cc2ccccc2)CC1)c1ccc(F)cc1 | -0.4 | /
COC(=O)c1ccc(-c2ccco2)n1Cc1nc(-c2ccccc2F)oc1C | -0.4 | 5
O=C(Sc1nc2ccccc2o1)c1ccccc1 | 2.0 | /
O=C(NNc1nc2c(F)cccc2s1)C1=COCCO1 | / | 8
CCOc1ccc(NC(=O)c2oc3ccccc3c2NC(=O)COC)cc1 | / | -1
Oc1ccc2ncccc2c1C(Nc1ccccn1)c1ccco1 (stereo unspecified) | / | 39
CNC(=O)NC(=O)c1cnccc1C(F)(F)F | 1.8 | /
CCOC(=O)NNC(=S)Nc1ccc(Cl)cc1 | -1.6 | /
Clc1ccc(/C=N\N2CCN(c3ccccc3)CC2)cc1 | / | 6
CCOC(=O)Cn1ccc2nc(SC)ncc2c1=O | / | 30
COCc1cc(C)nc(SCC(=O)NC2CCCCC2C)c1C#N (stereo unspecified) | 0.9 | 9
Cc1cccc(NC(=S)NC2CC3C=CC2C3)c1 (stereo unspecified) | 1.4 | /
CCOc1ccc(NC(=O)CN(C)Cc2cc(=O)n3c(-c4ccccc4)csc3n2)cc1OCC | / | -4
COc1ccc(C2C(C(=O)Nc3ccc4c(c3)OCCO4)c3ccccc3C(=O)N2C)cc1 (stereo unspecified) | / | -4
CCN(Cc1ccncc1)C(=O)CSc1ccc2ccccc2c1 | -3.7 | 14
N#Cc1ccc(N2CCOCC2)cc1C#N | -1.2 | 8
Cc1cc(C)c(S(=O)(=O)NC(C)C2C3CC4CC(C3)CC2C4)c(C)c1 (stereo unspecified) | 0.5 | 7

Of the compounds above, these have an aryl methoxy group:
SMILES | MgrA-DNA mod | Sa helicase inh
COc1cc(Cl)c(C)cc1NC(=O)CNC(=O)C1CCCCC1 | / | -10
COc1ccc(C2C(C(=O)Nc3ccc4c(c3)OCCO4)c3ccccc3C(=O)N2C)cc1 (stereo unspecified) | / | -4

Further results follow.
SMILES | MgrA-DNA mod | Sa helicase inh
CCCc1ccc(NC(N)=S)cc1 | -0.2 | /
Cc1c(C(=O)O)oc2ccc(S(=O)(=O)N(CC(C)C)CC(C)C)cc12 | 2.0 | 4
CC(C)CC(=O)N=Nc1c(O)[nH]c2ccc(Br)cc12 | / | 26
OC(COc1ccccc1)COc1ccccc1 | -2.2 | 6
O=C(NCc1cccnc1)c1nn2c(C(F)(F)F)cc(-c3ccccc3)nc2c1Br | 0.2 | /
CCCC(=O)NC(c1ccc(OC)c(OC)c1)c1cc(Cl)c2cccnc2c1O (stereo unspecified) | / | 1
O=C1Nc2ccccc2S/C1=C\C(=O)N1CCN(c2ccc(F)cc2)CC1 | / | 2
Cn1c(N)c(C(=S)NC(=O)c2cccs2)c(=O)n(C)c1=O | / | 0
Cc1nc2ncnn2c(C)c1CCC(=O)Nc1ccccc1 | / | 8
CNC(=O)c1c(C)nc(SCC(=O)OCC(=O)Nc2ccc(C)c(C)c2)c(C#N)c1-c1ccco1 | / | -11
COC(=O)/C(=C(/O)CSc1nnc(C2CC2)n1C)c1nc2ccccc2[nH]1 | / | 22
c1ccc(-c2nnc3cc(-c4ccccc4)sc3n2)cc1 | -1.4 | /
Cc1c(C#N)c(N)n(Cc2ccco2)c1C | / | -85
CCc1ccc(OCC(=O)Nc2ccc(S(=O)(=O)C(F)F)cc2)cc1 | / | -3
CN(C)c1ccc(O)c2c1C[C@H]1C[C@H]3[C@H](N(C)C)C(=O)C(C(N)=O)=C(O)[C@@]3(O)C(=O)C1=C2O | -0.1 | /

Sorted by formula weight (descending): three of the compounds above
SMILES | MgrA-DNA mod | Sa helicase inh
CN(C)c1ccc(O)c2c1C[C@H]1C[C@H]3[C@H](N(C)C)C(=O)C(C(N)=O)=C(O)[C@@]3(O)C(=O)C1=C2O | -0.1 | /
O=C1Nc2ccccc2S/C1=C\C(=O)N1CCN(c2ccc(F)cc2)CC1 | / | 2
c1ccc(-c2nnc3cc(-c4ccccc4)sc3n2)cc1 | -1.4 | /

(next part)
SMILES | MgrA-DNA mod | Sa helicase inh
Cc1ccc(-c2cc(C(=O)NC(C)(C)CO)no2)cc1 | 1.4 | -3
Nc1nnc(SCc2cc(F)cc3c2OCOC3)s1 | 2.1 | /
COc1ccc(-c2[nH]ncc2CN2CCN(c3ncc(C(F)(F)F)cc3Cl)CC2)cc1 | 1.9 | /
COc1ccc(NC(=O)c2sc(=S)n3c2[nH]c(=O)c2ccccc23)cc1 | / | -13
CNc1c(C(=O)c2ccc(OC)c(OC)c2)sc(N)c1C#N | 6.4 | 4
COCCOC(=O)C1=C(C)OC(N)=C(C#N)C1c1cc2cc3c(cc2nc1Cl)OCO3 (stereo unspecified) | 3.3 | -6
N#C/C(=C\c1ccc(F)cc1F)S(=O)(=O)c1ccccc1 | -1.0 | /
CCCCC/C=C\C/C=C\C/C=C\C=C\C(=O)CCCC(=O)O | 1.0 | /
CC(C)(C)NC(=O)CC12CC3CC(CC(C3)C1)C2 | / | -2
Cc1c(Sc2ccc(Cl)cc2)cnn1C(=O)NC(C)C | -1.0 | /
CCC(Sc1nc(=O)cc(N)n1-c1cccc(C)c1)C(=O)Nc1nnc(C)s1 (stereo unspecified) | / | 10
COc1ccccc1CN(C)C(C)C(=O)NC1CCCc2ccccc21 (stereo unspecified) | / | 2
Cc1cccc(NC(=O)c2ccc(S(=O)(=O)N3CCCCC3)cc2)n1 | / | 9
CCC(Sc1ccccc1C(=O)O)C(=O)O (stereo unspecified) | 0.3 | 8
CCOC(=O)Nc1cc(C(F)(F)F)cc(C(F)(F)F)c1 | 0.5 | /
Nc1nc(SCc2ccc(Cl)c(Cl)c2)n[nH]1 | 3.0 | /
CC1=NN(c2ccccc2)C(=O)C1C(=O)O (stereo unspecified) | -0.7 | 2
CCOC(=O)C1CSC2(CCCCC2)N1 (stereo unspecified) | -0.8 | /
Cc1ccc(S(=O)(=O)NCc2cccnc2)cc1 | -4.0 | 7
Cc1ccc2nc3nc(NCc4cccnc4)c(C(N)=O)cc3c(=O)n2c1 | 0.9 | 6
Cc1ccc(OCC(=O)NS(=O)(=O)c2ccccc2)cc1 | -1.1 | 8
Nc1ccc(Sc2ccc(N3C(=O)c4ccc(N)cc4C3=O)cc2)cc1 | / | 3
Fc1cccc(NCc2ccc3c(c2)OCO3)c1 | 1.1 | /
CC(C)OC(=O)CSc1nnc(CNc2ccc(F)cc2)n1C1CCCCC1 | -2.6 | 3
COc1ccc(C2CC(=O)C3=C(C2)Nc2ccccc2NC3c2coc3ccc(Cl)cc3c2=O)cc1 (stereo unspecified) | 2.6 | /
CC(C)(CNS(=O)(=O)c1ccc(Cl)cc1)N1CCCCC1 | -0.2 | -11
O=C(NCC(c1ccco1)N1CCCC1)c1ccc(-n2cccn2)cc1 (stereo unspecified) | / | -12
Cc1cccc(-c2n[nH]n3c2nc(=O)c2ccccc23)c1 | / | 9
CCOC(=O)c1sc(/N=C/c2cccc(Br)c2)cc1C | -2.5 | 7
NC(=O)Oc1ccc(I)cc1 | -1.6 | 6
Cc1ccc2oc(-c3ccccc3Cl)nc2c1 | 1.6 | 1
O=C(NC1CCCc2ccccc21)C1CCCC1 (stereo unspecified) | / | -6
CCCCP(=O)(c1ccccn1)c1ccccn1 | / | 9
COc1ccc(-c2n[nH]n3c2nc(=O)c2ccccc23)cc1 | / | 3
COC(=O)c1cc(OC)c(OC)cc1NS(=O)(=O)c1cc(C(F)(F)F)cc(C(F)(F)F)c1 | 1.5 | /
COc1ccc(CCNC(=O)CSc2nc(=O)[nH]c3c2CCCC3)cc1OC | / | 5
CNC1=C(c2ccc(C(F)(F)F)cc2)C(=O)C(c2ccccc2)O1 (stereo unspecified) | -2.1 | /
Oc1cccc(-c2nc(-c3ccccc3)c3ccccn23)c1 | 2.0 | 6
CSc1nsc(SC)c1CO | -1.1 | /
CC(C)(N)COc1nonc1-c1ccccc1 | -3.1 | 18
COC(=O)C1=C(C)NC(SCC(=O)NCc2ccccc2)=C(C#N)C1c1ccccc1F (stereo unspecified) | / | 7
NCC1(c2ccccc2)CCCC1 | / | 1
CC(C)c1ccc(NC(=O)C2CCN(S(=O)(=O)c3ccc4c(c3)CCC(=O)N4)CC2)cc1 | / | -31
Cc1nc(-c2ccc3c(c2)CCO3)no1 | -2.1 | /
CCCCOC(=O)N1C2C=CC(C2)C1(C(F)(F)F)C(F)(F)F (stereo unspecified) | 1.9 | -4
CC(C)CNS(=O)(=O)c1cccc2c(N)cccc12 | 2.0 | /
CCOc1ccc(OCc2cccc(C(=O)N3CCCC3)c2)cc1 | 0.8 | 7
COC1=CC(=CN(O)c2ccccc2)C=C(OC)C1=O | / | -11
O=C(COC(=O)/C=C/c1cccs1)Nc1ncc(Br)s1 | / | 3
COc1cccc(/C=C/C(=O)Nc2cccc3c2C(=O)NC3=O)c1OC | / | 1
CCC(=O)N1CCN(c2ccc(NC(=O)COc3ccccc3)cc2)CC1 | -0.4 | 21
CCCCCCc1cc2c(C)cc(=O)oc2cc1O | -0.7 | /
C=CCn1cc(/C=C(\C#N)C(=O)NC2CCCCC2)c2ccccc21 | 2.0 | 4
Cc1ccc(S(N)(=O)=O)cc1C(=O)NC(C)C | -0.1 | 8
O=C(Nc1nnc(C2CCCC2)s1)C1CC1 | 4.3 | 3
CC/C(=C\c1sc2ccc(OC)cc2[n+]1CC)SCC(=O)O | 1.7 | 2
CCOC(=O)C1(CC)CC(CSC(=N)N)OC1=O (stereo unspecified) | / | -29
Brc1ccc(-c2nc(-c3cccs3)c(-c3cccs3)[nH]2)s1 | 1.1 | 4
CCOC(=O)c1cc(-c2ccccc2)sc1NC(=O)CCN1CCN(CC)CC1 | -4.9 | -13
COc1ccc(Cl)cc1N1C(=O)CC(N2CC(C)OC(C)C2)C1=O (stereo unspecified) | / | -5

Profiles, quoted from the list. Order of values: MgrA-DNA mod | Sa helicase inh
CCC(=O)N1CCN(c2ccc(NC(=O)COc3ccccc3)cc2)CC1 across the screens: -0.4 | 21
CCOC(=O)C1(CC)CC(CSC(=N)N)OC1=O (stereo unspecified) across the screens: / | -29
CCOC(=O)c1cc(-c2ccccc2)sc1NC(=O)CCN1CCN(CC)CC1 across the screens: -4.9 | -13
C=CCn1cc(/C=C(\C#N)C(=O)NC2CCCCC2)c2ccccc21 across the screens: 2.0 | 4

Additional entries follow.
SMILES | MgrA-DNA mod | Sa helicase inh
CCCSc1nsc(NC(=O)CC)n1 | 2.4 | 3
Cc1ccc2c(c1)c1c3n2C=CNC3CCC1 (stereo unspecified) | / | 0
Cc1ccc(/C=C/C(=O)O)cc1S(=O)(=O)N1CCc2ccccc2C1 | / | 9
C=C(C)COc1ccc2c(CC)cc(=O)oc2c1OCC(=C)C | -2.2 | 18
O=C(c1cccs1)N(Cc1ccccc1)Cc1cccs1 | -1.8 | /
CCn1c(=N)c(C#N)cc2c(=O)n3cc(C)ccc3nc21 | / | -34
O=C(NCCC1=CCCCC1)c1ccc2c(=O)n3c(nc2c1)CCCCC3 | / | 10
O=C(Nc1nc(-c2ccc(Br)s2)cs1)c1cc(=O)c2ccccc2o1 | -0.7 | /
CC(=C(C#N)C#N)c1ccc(Cl)cc1 | -1.6 | /
NC(=O)c1c(NC(=O)CSc2nc3ccccc3s2)sc2c1CCC2 | / | -1
COc1cc(NC(C)CCCN)c2ncccc2c1 (stereo unspecified) | -2.3&-0.2 | /
COc1ccccc1Nc1nc2cc(Cl)ccc2o1 | -1.4 | 13
O=C(Nc1ccncc1NC(=O)C1CC1)C1CC1 | / | -7
O=S(=O)(Cc1ccccc1)N1CCC(Oc2cccc(C(F)(F)F)c2)CC1 | / | -16
CCc1ccccc1Nc1nc(N)nc(CN(C)Cc2cccs2)n1 | / | -16
O=C(CSc1nnc(Cn2nnc3ccccc32)o1)N(Cc1ccc(Cl)cc1)c1ccccc1 | -0.6 | -2
O=C(O)c1sccc1OCc1ccccc1 | 0.2 | /
CN1CCN(c2ccc(CN3CCS(=O)(=O)CC3)cc2)CC1 | 0.8 | /
O=C(O)CCNc1ncnc2c1oc1ccccc12 | / | -26
COc1ccc(C)cc1S(=O)(=O)n1nnc2ccccc21 | / | -27
CSc1nsc(SC)c1C(=O)NN1CCOCC1 | 0.1 | /
COC(=O)c1cnn(C(=O)Nc2ccccc2)c1C(OC)OC | -3.5 | /
COc1ccc(COC(=O)C2=C(C)NC3=C(C(=O)CC(C)(C)C3)C2c2ccc(OCCO)c(OC)c2)cc1 (stereo unspecified) | 2.4 | /
Nc1c(-c2ccccc2)c(CN2CCOCC2)nn1-c1ccccc1 | -1.6 | -10

Two of the compounds above, in markdown.
| SMILES | MgrA-DNA mod | Sa helicase inh |
| --- | --- | --- |
| CSc1nsc(SC)c1C(=O)NN1CCOCC1 | 0.1 | / |
| COC(=O)c1cnn(C(=O)Nc2ccccc2)c1C(OC)OC | -3.5 | / |
